Choline anaer gr – inhibitors of anaerobic choline-dependent gram-negative bacterial growth. Gram-negative bacterium anaerobic choline minimal medium, absorbance growth; active compounds read low; many inactives read as strong as hits in the columns shown. calls only. actives 0.2% (n = 55,000);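 active = growth z-score on choline under -2 at 7 or 20 h with little or no fall on glycerol, limits in tiers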;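 note: stock transfer was 300 nL into about 50 µL; the organism is E. coli; final concentration not given here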
Choline anaer gr early – second read-out of Choline anaer gr, no call of its own (marks repeat the call); z-score; measured here: choline growth z-score, timepoint 1;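 score of optical density at 7 h as mean of two plates; lower means less growth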
An asterisk follows results filed as active; & = joins results of further samples.

CC1CCCCN1CCCNC(=O)CN1C(=O)c2cccnc2Oc2ccccc21 (stereo not given) was read as Choline anaer gr inactive and Choline anaer gr early 0.06.
`COc1ccc(-c2cc(N3CCN(C(=O)NC4CCCCC4)CC3)ncn2)cc1OC` gave Choline anaer gr inactive and Choline anaer gr early -0.27.
Cc1nc2sc3ccccc3n2c(=O)c1S(=O)(=O)NCCC1=CCCCC1 was read as Choline anaer gr inactive and Choline anaer gr early -0.32.
`CC1CCCN(C(=O)C2CC(=O)N(C3CCCCC3)C2)C1` (stereo not given) gave Choline anaer gr inactive and Choline anaer gr early -1.5.
Screening O=S(=O)(Nc1ccc2nncn2n1)c1ccc(Br)cc1 returned Choline anaer gr inactive and Choline anaer gr early -0.76.
For CC(C)(C)NS(=O)(=O)c1ccc(NC(=O)C2c3ccccc3Oc3ccccc32)cc1 the results were Choline anaer gr inactive and Choline anaer gr early 0.11.
`COC(=O)c1c(-c2ccc(Cl)cc2)noc1Nc1ccc(OC)c(OC)c1` gave Choline anaer gr inactive and Choline anaer gr early -0.64.
Screening CC(C)NC(=O)C1CCC(Cn2c(=O)c3sccc3n(CC(N)=O)c2=O)CC1 (stereo not given) returned Choline anaer gr inactive and Choline anaer gr early 0.07.
CCCN1CCN(C(=O)C2CCN(S(=O)(=O)c3ccc4c(c3)NC(=O)C(C)S4)CC2)CC1 (stereo not given) was read as Choline anaer gr inactive and Choline anaer gr early -0.84.
COC(=O)c1ccc2c(=O)n(CCC(=O)N3CCN(c4ccccn4)CC3)c(=S)[nH]c2c1 was read as Choline anaer gr inactive and Choline anaer gr early -0.32.
Screening O=C(O)c1cc(Nc2ccc3c(c2)OCO3)c2cccc(Cl)c2n1 returned Choline anaer gr inactive and Choline anaer gr early -0.03.
For CC1Sc2ccc(S(=O)(=O)N3CCC(C(=O)N4CCCC4)CC3)cc2NC1=O (stereo not given) the results were Choline anaer gr inactive and Choline anaer gr early -0.84.
For O=c1n(CCOc2ccc(F)cc2)nc2c(S(=O)(=O)N3CCCC3)cccn12 the results were Choline anaer gr inactive and Choline anaer gr early -1.1.
Screening Cc1cc(N2CCCC2)n2nc(C)c(-c3ccc(F)cc3)c2n1 returned Choline anaer gr inactive and Choline anaer gr early -0.16.
CC(=O)N1CCCC1c1nc2ccccc2n1CC(=O)N1CCCCC1 (stereo not given) was read as Choline anaer gr inactive and Choline anaer gr early -0.35.
Screening O=C(NCCN=C1NS(=O)(=O)c2ccccc21)c1ccc(S(=O)(=O)N2CCOCC2)cc1 returned Choline anaer gr inactive and Choline anaer gr early 0.45.
`Cc1ccc(Sc2cncc3sc(C(N)=O)cc23)cc1` gave Choline anaer gr inactive and Choline anaer gr early 0.61&-0.48.
For O=C(NCCCN1CCC(N2CCCCC2)CC1)c1noc2c1CCc1sccc1-2 the results were Choline anaer gr inactive and Choline anaer gr early -0.65.
For CCc1onc(C)c1C1CCCN1Cc1ccc(O)c(OC)c1 (stereo not given) the results were Choline anaer gr inactive and Choline anaer gr early -1.6.
`COCCSc1c(C(C)C)cnc2c1c(=O)n(C)c(=O)n2C` gave Choline anaer gr inactive and Choline anaer gr early -1.1.
`Oc1c(Br)cc(Br)c2cccnc12` gave Choline anaer gr inactive and Choline anaer gr early -2.6.
For Cn1c(=O)cc(SCC(=O)N2CCC(Cc3ccccc3)CC2)c2cc(Cl)ccc21 the results were Choline anaer gr inactive and Choline anaer gr early 0.41.
CC(=O)Nc1ccc(Sc2cc(C)nc3ncnn23)cc1 was read as Choline anaer gr inactive and Choline anaer gr early -1.6.
`CC1CCN(S(=O)(=O)c2ccc3c(c2)oc(=O)n3CC(=O)N2CCN(C3CCCCC3)CC2)CC1` gave Choline anaer gr inactive and Choline anaer gr early -0.43.
For Cc1ccc(NC(=O)C2CCCN(c3ccc4cc(S(=O)(=O)N5CCCCC5)ccc4n3)C2)cc1 (stereo not given) the results were Choline anaer gr inactive and Choline anaer gr early -0.14.
Screening Cc1ccc(CNC(=O)CN2CCOc3ccccc32)cc1 returned Choline anaer gr inactive and Choline anaer gr early -0.23.
Screening Cc1onc(-c2ccc(F)cc2F)c1C(=O)NCc1ccc2c(c1)OCO2 returned Choline anaer gr inactive and Choline anaer gr early -0.1.
For Cc1nn(-c2ccc3nncn3n2)c2c1C(c1ccc(OCc3ccc(F)cc3)cc1)CC(=O)N2 (stereo not given) the results were Choline anaer gr inactive and Choline anaer gr early -1.7.
`COc1cccc(NC(=O)C2CCCN(S(=O)(=O)c3ccc4c(c3)CC(C)N4C(C)=O)C2)c1` (stereo not given) gave Choline anaer gr inactive and Choline anaer gr early 0.7.
For COc1ccc(-c2nc3ccccc3c3nnc(SCCN(C)C)n23)cc1 the results were Choline anaer gr inactive and Choline anaer gr early -1.4.
Screening CCn1cc(C(=O)Oc2ccc3cnccc3c2)c2ccccc2c1=O returned Choline anaer gr inactive and Choline anaer gr early 1.3.
For CCCCOc1ccc(-c2cc3c(=O)n(CC(=O)Nc4ccc(Cl)cc4)ccn3n2)cc1 the results were Choline anaer gr inactive and Choline anaer gr early 0.39.
For CN(C)c1cccc(C(=O)N(CCCN2CCCC2=O)CC(=O)N2CCNCC2)c1 the results were Choline anaer gr inactive and Choline anaer gr early 1.3.
O=C(NCC1CCCO1)C1CCN(c2cncnc2N2CCCC2)CC1 (stereo not given) was read as Choline anaer gr inactive and Choline anaer gr early -0.44.
For CN1CCN(C(=O)C2(c3ccccc3Cl)CC2)CC1 the results were Choline anaer gr inactive and Choline anaer gr early -0.51.
CCc1ccc(C2=C(C)C(=O)N(CC(=O)NCc3cccc(Br)c3)S2(=O)=O)cc1 was read as Choline anaer gr inactive and Choline anaer gr early -0.2.
Cc1ccc(-c2nn3c(-c4cccnc4)nnc3s2)cc1 was read as Choline anaer gr inactive and Choline anaer gr early 0.14.
For Cc1ccc(N(Cc2nc3nc(C)cc(=O)n3[nH]2)S(=O)(=O)c2ccccc2)cc1 the results were Choline anaer gr inactive and Choline anaer gr early 0.12.
Cc1nc(CCNC(=O)[C@H]2CCCN2S(=O)(=O)c2ccc3c(c2)oc(=O)n3C)cs1 was read as Choline anaer gr inactive and Choline anaer gr early 0.47.
Screening COc1ccc(-c2noc3ncnc(N4CCC(C(=O)N5CCC(C(N)=O)CC5)CC4)c23)cc1 returned Choline anaer gr inactive and Choline anaer gr early 0.51.
Screening COc1ccc(C2c3cc(OC)c(OC)cc3CC(=O)N2c2ccc(F)cc2)cc1 (stereo not given) returned Choline anaer gr inactive and Choline anaer gr early -0.31.
For COc1cccc(CC(=O)N2CCCC(c3nc(-c4ccc(NC(C)=O)cc4)no3)C2)c1 (stereo not given) the results were Choline anaer gr inactive and Choline anaer gr early -1.4.
For O=S(=O)(c1ccc(F)cc1)N1CCC(c2noc(-c3cccc(F)c3)n2)CC1 the results were Choline anaer gr inactive and Choline anaer gr early 0.28.
COc1ccc(C(=O)N2CCc3cc4ccc(OC)cc4nc32)cc1 was read as Choline anaer gr inactive and Choline anaer gr early 0.21.
CCOc1ccc(C(=O)N2CCCC(c3nc(-c4ccc(NC(C)=O)cc4)no3)C2)cc1OCC (stereo not given) was read as Choline anaer gr inactive and Choline anaer gr early -0.01.
For COc1ccc(NC(=O)Cn2c(=O)n(-c3cccc(C)c3)c(=O)c3c2c2cc(C)ccc2n3C)c(OC)c1 the results were Choline anaer gr inactive and Choline anaer gr early -1.1.
Cc1cccc(-n2ccc(=O)c(C(=O)Nc3c(C)n(C)n(-c4ccccc4)c3=O)n2)c1 was read as Choline anaer gr inactive and Choline anaer gr early -0.06.
Screening CC[n+]1c(/C=C/C=C2/N(C)c3ccccc3C2(C)C)sc2ccccc21 returned Choline anaer gr inactive and Choline anaer gr early -4.
COc1ccc(NC(=O)c2cc(-c3cccnc3)on2)cc1OC was read as Choline anaer gr inactive and Choline anaer gr early 1.1.
`Cc1ccc2nc3c(cc2c1)CCN3S(=O)(=O)c1ccc(OC2CCCC2)cc1` gave Choline anaer gr inactive and Choline anaer gr early 1.4.
Screening CNC(=C[N+](=O)[O-])NCCSCc1csc(CN(C)C)n1 returned Choline anaer gr inactive and Choline anaer gr early -0.01&0.67.
O=C(c1cc2n(n1)CCCN(Cc1ccc(F)cc1)C2=O)N1CCCC1 was read as Choline anaer gr inactive and Choline anaer gr early 1.2.
`Cc1ccc(/C=C/c2onc(C)c2S(=O)(=O)N2CCC(C(=O)N3CCC(N(C)C(C)C)CC3)CC2)cc1` gave Choline anaer gr inactive and Choline anaer gr early 0.67.
`O=C(Nc1nccs1)c1ccccc1Br` gave Choline anaer gr inactive and Choline anaer gr early 1.1.
Screening Cc1cc(C)cc(NC(=O)c2cnc3sccn3c2=O)c1 returned Choline anaer gr inactive and Choline anaer gr early -1.4.
For Cc1ccccc1CS(=O)(=O)N1CCCC(C(=O)Nc2ccccc2Oc2ccccc2)C1 (stereo not given) the results were Choline anaer gr inactive and Choline anaer gr early 2.6.
O=C(NC1CC1)c1ccc(Cn2c(SCc3ccccc3Cl)nc3ccncc32)cc1 was read as Choline anaer gr inactive and Choline anaer gr early -0.97.
For CCNc1n[nH]c(N)c1-c1nc(-c2ccc(OC)cc2)no1 the results were Choline anaer gr inactive and Choline anaer gr early 0.57.
Screening CCn1c(=O)c2ccn(CC(=O)Nc3ccc(F)cc3)c2n(CC)c1=O returned Choline anaer gr inactive and Choline anaer gr early 0.05.
`CC(=O)N1N=C(c2[nH]nc(-c3ccccc3)c2C)OC1/C(C)=C/c1ccccc1` (stereo not given) gave Choline anaer gr inactive and Choline anaer gr early 2.9.
For c1ccc(-c2cc(-c3nc(-c4ccccc4)no3)[nH]n2)cc1 the results were Choline anaer gr inactive and Choline anaer gr early -1.
Screening O=C(O)c1cc(Oc2ccc([N+](=O)[O-])cc2)cc(Oc2ccc([N+](=O)[O-])cc2)c1 returned Choline anaer gr inactive and Choline anaer gr early 0.28.
Screening O=C(NC1CCCCC1)c1cccc(NC(=O)c2nsc3ccccc23)c1 returned Choline anaer gr inactive and Choline anaer gr early -1.1.
For COc1ccc(C2CCN(S(C)(=O)=O)CC2)cc1 the results were Choline anaer gr inactive and Choline anaer gr early -0.42.
`CN(Cc1cccs1)C(=O)NC1CCCC1` gave Choline anaer gr inactive and Choline anaer gr early -0.28.
Screening Cc1c(CNCc2ccccc2Cl)c(C(=O)O)c(C)n1-c1ccc(Cl)cc1 returned Choline anaer gr inactive and Choline anaer gr early 0.52.
`Cc1c2cnn(CC(=O)N3CCC(C)CC3)c(=O)c2c(C)n1Cc1ccccc1` gave Choline anaer gr inactive and Choline anaer gr early -1.1.
Screening CCOCCCNC(=O)Nc1cc2c(cc1N1CCC(C(=O)OCC)CC1)n(C)c(=O)n2C returned Choline anaer gr inactive and Choline anaer gr early -1.4.
For COc1cccc(-n2nnc3c(N4CCN(C(=O)c5cc(=O)c6ccccc6o5)CC4)ncnc32)c1 the results were Choline anaer gr inactive and Choline anaer gr early 1.1.
CC1CCN(C(=O)c2cc3c(s2)CCC(C(=O)NCCCN2CCCCC2)C3)CC1 (stereo not given) was read as Choline anaer gr inactive and Choline anaer gr early 0.1.
Screening Cc1nc(-c2cc(S(=O)(=O)N(C(C)C)C3CCCCC3)c(C)s2)sc1C returned Choline anaer gr inactive and Choline anaer gr early -0.26.
CC(C)(C)OC(=O)COc1cc(O)c2c(=O)cc(-c3ccccc3)oc2c1 was read as Choline anaer gr inactive and Choline anaer gr early 0.1.
`O=C(CCC(=O)N1CC=C(c2c[nH]c3ccccc23)CC1)NCc1ccc(Cl)cc1` gave Choline anaer gr inactive and Choline anaer gr early -0.56.
Screening CC(C)NS(=O)(=O)c1ccc2c(c1)N(Cc1noc(C3CCC3)n1)C(=O)CO2 returned Choline anaer gr inactive and Choline anaer gr early 0.44.
For O=c1c2nnc(SCc3ccc(F)cc3)n2ccn1-c1ccc(Br)cc1 the results were Choline anaer gr inactive and Choline anaer gr early 0.29.
For Clc1ccc(Nc2nc3nonc3nc2N2CCOCC2)cc1 the results were Choline anaer gr inactive and Choline anaer gr early -1.2.
For CCCCOc1cccc(C2Nc3ccccc3NC3=C2C(=O)CC(C)(C)C3)c1 (stereo not given) the results were Choline anaer gr inactive and Choline anaer gr early -1.4.
For CCc1nnc(NC(=O)CSc2nnc3ccc(-c4ccccc4)nn23)s1 the results were Choline anaer gr inactive and Choline anaer gr early -0.97.

These rows are one share of the data; count on the stated rates, not on these rows.
